Screens (PubChem BioAssay)
ALR inh: blocks human ALR sulfhydryl oxidase activity | purified ALR, DTT oxidation, H2O2 HRP-luminol luminescence | inhibition, % (no concentration beside the values) | hit rate 3.8% among 290,000 | P55789;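 active means mean and each replicate at 75% or more; inconclusive means only one of the two met; inactive means neither met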;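 further: stock transfer was 7.5 nL into about 7.5 µL; 0% = neutral wells and 100% = wells with inactivated enzyme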
Target sequence (P55789 whole entry, looked up): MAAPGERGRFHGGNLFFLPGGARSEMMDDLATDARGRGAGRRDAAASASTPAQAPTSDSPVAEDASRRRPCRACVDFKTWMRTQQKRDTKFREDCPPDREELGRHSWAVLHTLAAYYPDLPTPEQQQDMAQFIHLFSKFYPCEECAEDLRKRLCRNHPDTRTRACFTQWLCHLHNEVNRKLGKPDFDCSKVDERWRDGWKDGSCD
Beta cell apopt: blocks beta cell apoptosis | AID 435005 | INS-1E cytokine-induced death, ATP luminescence, 48 h; percent of positive-control rescue, neutral wells zero | protection from apoptosis, % (test concentration not listed) | hit rate 0.8% among 300,000;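 active means all replicates at 75% or more, or half of them and the mean; inconclusive means half reach 75% but not the mean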;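 further: 0% = cytokine-treated negative control wells and 100% = positive control rescue; higher means more ATP so stronger rescue from cytokine killing; wells of about 40 µL received 100 nL stock; the first replicate is given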
FGF22 binding: FGF22 (human) thermal shift binding | Q9HCT0 | recombinant FGF22 thermal shift, SYPRO orange fluorescence; percent of sucrose octasulfate shift, DMSO zero | calls only at 9.99 µM | hit rate 1.5% among 340,000 | AID 651658;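 active means melting point raised past a set limit in the mean and every replicate; inconclusive means no clear call; three in four hits are not shown here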
Target sequence (Q9HCT0 whole entry, looked up): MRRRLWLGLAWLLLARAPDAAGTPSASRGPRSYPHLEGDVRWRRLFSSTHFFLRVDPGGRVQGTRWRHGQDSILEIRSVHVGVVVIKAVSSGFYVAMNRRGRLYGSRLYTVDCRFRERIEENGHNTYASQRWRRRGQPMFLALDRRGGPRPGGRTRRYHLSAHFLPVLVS
T cruzi inh: T. cruzi replication inhibition | hit rate 1.4% among 300,000 | inhibition, % (no concentration beside the values) | T. cruzi beta-gal in NIH3T3, luminescence, 90 h;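 active means mean inhibition across valid replicates above about 55%, limit read from the data; inconclusive means mean below that limit but half or more replicates reach it; inactive means mean below it, under half of replicates reach it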;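 further: signal also drops with host cell toxicity which is not excluded here; 0% = plate median of DMSO wells and 100% = zero luminescence signal; higher percent means less beta-gal luminescence so fewer parasites; stock transfer was 50 nL into about 50 µL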
AF4-AF9 inh: inhibitors of human MLL-AF4/AF9 interaction. hit rate 0.47% among 350,000. AlphaScreen, biotin-AF4 peptide binding to FLAG-AF9. P42568. AID 651704. inhibition, % at 10 µM;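 active means every replicate reaching a set inhibition limit, whatever the replicate mean, cut at about 25% in these data; inconclusive means mean inhibition reaches that limit but some replicates miss it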;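 further: 0% = plate neutral control median and 100% = total signal loss; the record names both 10 and 1 µM as test concentration; the first replicate is given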
Target sequence (P42568 whole entry, looked up): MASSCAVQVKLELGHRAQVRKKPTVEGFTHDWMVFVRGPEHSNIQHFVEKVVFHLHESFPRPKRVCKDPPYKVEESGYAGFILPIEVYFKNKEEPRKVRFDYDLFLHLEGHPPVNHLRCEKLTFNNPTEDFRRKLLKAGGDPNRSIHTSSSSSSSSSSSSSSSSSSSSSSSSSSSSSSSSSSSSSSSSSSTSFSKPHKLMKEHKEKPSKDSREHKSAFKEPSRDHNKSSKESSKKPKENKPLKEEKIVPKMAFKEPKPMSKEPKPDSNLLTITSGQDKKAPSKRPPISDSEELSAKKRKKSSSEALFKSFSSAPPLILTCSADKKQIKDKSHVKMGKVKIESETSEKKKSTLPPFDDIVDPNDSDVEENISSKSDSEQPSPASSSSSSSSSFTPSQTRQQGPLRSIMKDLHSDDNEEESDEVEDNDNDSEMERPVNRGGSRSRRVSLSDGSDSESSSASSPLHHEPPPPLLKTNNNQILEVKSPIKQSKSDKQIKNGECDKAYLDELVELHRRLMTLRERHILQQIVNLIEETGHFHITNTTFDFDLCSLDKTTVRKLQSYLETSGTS
RanGTP-Impb inh: disruptors of Ran-importin-beta complex formation – biochemical, FRET, CFP-Ran, YFP-importin-beta, homogeneous, primary screen; cell-free CFP-Ran/YFP-importin-beta FRET ratio; inhibition, % (concentration not given with the values); hit rate 1.1% among 300,000; AID 2216;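 active means most replicates above 15%; inconclusive means exactly half above 15%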;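 further: 0% = DMSO wells and 100% = Ran loaded with GDP instead of GTP; wells of about 40 µL received 100 nL stock; the first replicate is given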
Calb FLC: affects C. albicans growth with fluconazole; C. albicans CaCi-2 (fluconazole-resistant clinical isolate) + fluconazole, Alamar Blue growth, 48 h; growth inhibition, % (concentration not given with the values); hit rate 0.57% among 300,000; AID 1979;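 active means most replicates above 75%; inconclusive means exactly half above 75%; inactive means most below 75%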;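 further: all wells also contain fluconazole at 8 µg/ml as a sub-toxic cotreatment; 0% = median of DMSO wells and 100% = median of geldanamycin control wells; wells of about 8 µL received 7.5 nL stock; the first replicate is given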
Ecoli rRNA inh: inhibitors of bacterial rRNA selective over humanized ribosomes. GFP signal change (wild-type ribosome), % (test concentration not listed). hit rate 1.6% among 350,000. E. coli WT GFP vs humanized-ribosome RFP mutants, fluorescence, 24 h; hits give low values; DMSO median 0, no signal -100;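 active means significant combined selectivity score with lowered wild-type GFP, culture density cut under 30%, mutant RFP and density less affected; inactive means any of these conditions unmet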; further: one replicate is shown; some compounds called inactive have numbers as strong as hits
Ecoli rRNA inh OD600: also measured in Ecoli rRNA inh; calls as there; OD600 change, %; measured here: OD600 growth;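 optical density of the mix in the first replicate; 0 = DMSO median and -100 = no signal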
Ecoli rRNA inh RFP: further read-out of Ecoli rRNA inh, marked with its call; RFP signal change, %; measured here: RFP humanized mutant strains;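 first replicate; 0 = DMSO median and -100 = no signal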
Starred values were filed as active, the others as inactive; i = inactive; ? = inconclusive; / = no result given. Only part of the results is shown; rates above refer to the full screens.

SMILES | ALR inh | Beta cell apopt | FGF22 binding | T cruzi inh | AF4-AF9 inh | RanGTP-Impb inh | Calb FLC | Ecoli rRNA inh | Ecoli rRNA inh OD600 | Ecoli rRNA inh RFP
Cc1ccc(-n2c(COc3cccc(C)c3)n[nH]c2=S)cc1 | 35 | 5 | i | 0 | -7.9 | -3.2 | 18 | -26 | -36 | -5.6
CN(C)c1ccc(CNC(=O)CCS(=O)(=O)c2ccc3c(c2)n(C)c(=O)c(=O)n3C)cc1 | 31 | 7 | / | -13 | / | -0.5 | -6 | / | / | /
c1ccc(NC2=NCCN2CC2CCCC2)cc1 | -6 | -2 | i | -20 | 6.5 | 3.2 | -6 | 10 | 11 | 1.3
CCN(CC)S(=O)(=O)c1ccc2[nH]cc(C(=O)NC3CC3)c(=O)c2c1 | -13 | 1 | i | 6 | 0.4 | -11 | -5 | -3 | 0 | -2.3
COCCN(CCOC)Cc1c(C)[nH]c2c(C)c(C)ccc2c1=O | -9 | -5 | i | 4 | -2.5 | 4.7 | 3 | -6 | 4 | -4.1
COc1ccc(-n2c(SCC(=O)Nc3ccccc3)nnc2-c2ccc(NS(=O)(=O)c3ccc(C)cc3)cc2)cc1 | / | 13 | / | 4 | / | -2.1 | -5 | / | / | /
Cc1ccc(C)c(-c2cc(C(=O)N/N=C/c3cccnc3)c3ccccc3n2)c1 | 0 | 33 | i | 5 | 2.6 | 1.0 | 1 | -20* | -13* | -0.3*
CC1(C)CC2CC(C)(CN2/C=N/c2sc3c(c2C#N)CC(C)(C)NC3(C)C)C1 (stereo not drawn) | -5 | 16 | i | 40 | 12 | -0.6 | -32 | -12 | 0 | 4.3
CN(C)c1ccc(C(=O)N2CC(=O)N(CCc3ccccc3)C(=O)C2)cc1 | 40 | -3 | / | 0 | / | 3.8 | 11 | / | / | /
COc1ccccc1OCCCOc1c(Cl)cc(C)cc1Cl | -9 | 2 | i | 10 | -6.4 | 5.1 | 9 | 5 | 4 | -1.3
CCC(c1nnnn1Cc1ccco1)N(Cc1ccccc1OC)Cc1cc2cc(C)ccc2[nH]c1=O (stereo not drawn) | 3 | / | / | 44 | / | ? | -5 | / | / | /
CNC(=O)c1nnc(Cc2ccc(Cl)cc2)o1 | / | -12 | i | -10 | 9.1 | ? | -6 | 3 | 5 | -2.4
Cc1n[nH]c(=O)n1-c1ccc(Oc2ccccc2)cc1 | -1 | 2 | / | -6 | / | 4.4 | 2 | / | / | /
COc1cc(NC(=O)COC(=O)c2cnccn2)c(C)cc1[N+](=O)[O-] | -4 | 5 | i | -1 | 5.2 | ? | 10 | 5 | -2 | -2.4
CCCn1c(=O)c(C(=O)Nc2cccc(C)c2)c(O)c2ccccc21 | -4 | -9 | i | -9 | 0.6 | -1.4 | 0 | 10 | 9 | -0.7
CCOC(=O)CSc1nnc(CCc2nc3ccccc3[nH]2)n1C | -11 | 0 | / | -9 | / | 0.7 | 8 | / | / | /
CCCCN1C(=S)SC(C)(C)C1/[N+]([O-])=C/c1cccnc1 (stereo not drawn) | -8 | -3 | / | -14 | / | 1.7 | -8 | / | / | /
CCCOC(=O)C1=C(C)N(C)C(=O)NC1c1cc2c(cc1Br)OCO2 (stereo not drawn) | -3 | -8 | i | -3 | -1.5 | -0.8 | 10 | -8 | -9 | -4.2
Cc1ccc(CNC(=O)CSc2nc3ccccc3c(=O)n2CC2CCCO2)cc1 (stereo not drawn) | 12 | -4 | i | / | -2.2 | / | / | / | / | /
Clc1cccc(-c2nnc3n2CCCCC3)c1 | 1 | 1 | i | -16 | -1.6 | 8.3 | -8 | 10 | 6 | -0.3
CC(C)(C(=O)N[C@H](CO)c1ccccc1)C(=O)N[C@H](CO)c1ccccc1 | -17 | -4 | i | -6 | 2.0 | -5.6 | -1 | 1 | -1 | 2.9
O=C(NCc1ccc(Cl)cc1)C1CCN(S(=O)(=O)N2CCOCC2)CC1 | -1 | -3 | i | -9 | -1.8 | -3.6 | 12 | 5 | 6 | -6.2
CC(C)CN(CCCNC(=O)CN1C(=O)COc2ccc(S(=O)(=O)N3CCCCCC3)cc21)CC(C)C | -3 | -8 | i | 4 | 0.7 | -2.8 | -18 | -2 | -4 | -2.2
CN(C)/C=C(\C=O)c1cccc(Cl)c1 | -34 | -4 | i | 5 | -3.3 | 2.5 | -3 | 14 | 9 | 0.6
CN1C(=O)c2ccc(Oc3ccccc3)cc2C1=O | -5 | / | i | -14 | / | 2.2 | 1 | -2 | 4 | 2.1
Further records follow.
SMILES | ALR inh | Beta cell apopt | FGF22 binding | T cruzi inh | AF4-AF9 inh | RanGTP-Impb inh | Calb FLC | Ecoli rRNA inh | Ecoli rRNA inh OD600 | Ecoli rRNA inh RFP
CCOC(=O)c1c(S(=O)(=O)NCCc2ccc(OC)c(OC)c2)c(C)n(C)c1C | -1 | / | i | 2 | -1.8 | 1.9 | 14 | 1 | 6 | -1.6
CC(C)OC(=O)CC12CN3CC(CC(=O)OC(C)C)(CN(C1)C(=O)c1ccccc1C3=O)C2=O | -31 | 1 | / | -11 | / | 1.7 | 5 | / | / | /
CS(=O)(=O)Cc1ccc(C(=O)NC(c2ccccc2)c2ccccc2)cc1 | / | -1 | i | 2 | -6.5 | 11 | -17 | / | / | /
CCCCc1cc(C(=O)Cc2ccccn2)c(O)cc1O | 3 | -2 | i | -7 | -4.5 | 0.7 | 20 | -8 | -3 | 2.1
CCCn1c(CCC(=O)Nc2ccccc2Cc2ccccc2)nc2cc(S(=O)(=O)N3CCOCC3)ccc21 | 1 | 0 | / | 19 | / | 7.7 | 10 | / | / | /
CCC(C)(C)n1nnnc1C(c1ccc(OC)c(OC)c1)N1CCN(c2ccc(OC)cc2)CC1 (stereo not drawn) | 52 | -7 | / | 8 | / | 1.0 | 15 | / | / | /
CCCC(=O)Nc1ccc2nc(SCC(=O)Nc3ccc(N4CCOCC4)c(Cl)c3)sc2c1 | 11 | 26 | / | 20 | / | 2.4 | 7 | / | / | /
CCOc1cc(C=O)cc(N=Nc2cccc([N+](=O)[O-])c2)c1O | 5 | 3 | i | 4 | -4.6 | -1.4 | 104* | 22 | 27 | 0.7
O=C(Nc1ccc(Cl)c(S(=O)(=O)N2CCOCC2)c1)c1ccc2c(c1)OCCO2 | 7 | -4 | / | 21 | 1.0 | -2.7 | 18 | -35 | -34 | -2.3
CCSc1nnc(-c2ccc(S(=O)(=O)NCc3cccs3)cc2)o1 | 1 | 4 | i | 2 | -13 | / | 7 | -16 | -5 | -7.7
CCNS(=O)(=O)c1ccc(OCCNS(C)(=O)=O)cc1 | -3 | -1 | i | -1 | -12 | -0.7 | 3 | 6 | 10 | -3.0
COCc1c(C(=O)N/N=C(/C)c2ccccc2)nnn1-c1nonc1N | 0 | -1 | i | 2 | -1.6 | 5.8 | -2 | 8 | 5 | -2.0
CCCc1cc(=O)[nH]c(Nc2cc(OC)ccc2OC)n1 | -6 | -5 | / | -4 | / | 0.7 | 40 | / | / | /
CC(C)c1nc(SCC(=O)c2ccccc2)c2c(=O)n(C)c(=O)n(C)c2n1 | -6 | 3 | i | 15 | -2.1 | -1.2 | 1 | 2 | 7 | -2.4
Cc1cccc(N2C(=O)C(Cc3ccccc3)NC2=S)c1 (stereo not drawn) | / | -6 | i | 12 | -4.1 | 2.6 | 8 | -43 | -62 | -22
Cn1cnnc1SC(C(=O)Nc1cc(Cl)cc(Cl)c1)c1ccccc1 (stereo not drawn) | -19 | -4 | / | 12 | / | 1.7 | 7 | / | / | /
COc1cccc(CNC(=O)CCC2CCCN(C(=O)CCc3c(C)noc3C)C2)c1 (stereo not drawn) | -30 | -1 | i | 5 | -3.2 | -4.3 | -13 | 1 | 7 | -3.4
Cc1cn(-c2cccnc2)c(C)c1CNC[C@H]1O[C@@H](n2cnc3c(N)ncnc32)[C@H](O)[C@@H]1O | 3 | -1 | / | / | 1.0 | / | / | 13 | 17 | 4.5
CC(=O)N1N=C(c2ccccc2)OC1c1cccnc1 (stereo not drawn) | -6 | 1 | i | -14 | -0.4 | 4.2 | ? | 9 | -5 | -3.3
COc1ccc(C(CNC(=O)c2ccc(C)c(S(=O)(=O)Nc3ccccc3OC)c2)N2CCCC2)cc1 (stereo not drawn) | 1 | 4 | i | 51 | ? | -1.3 | -7 | -1 | -1 | 3.3
Cc1nnc(Sc2nc3c(c(=O)n(C)c(=O)n3C)n2Cc2ccc(Cl)cc2)s1 | -2 | -1 | / | 6 | / | 1.8 | 45 | / | / | /
CCOC(=O)c1sc2nc(NC(=O)C3CC3)sc2c1C | / | 5 | i | 8 | -21 | 0.9 | -4 | -3 | 12 | -4.2
CN(C)S(=O)(=O)c1cccc(NC(=O)Cn2cnc3ccccc3c2=O)c1 | -9 | -5 | i | 2 | 7.7 | 4.5 | 4 | -8 | -14 | -8.8
O=[N+]([O-])c1ccccc1S(=O)(=O)c1ccccc1 | / | -2 | i | -8 | -1.4 | 4.7 | -2 | -5 | -13 | 1.1
O=c1ccc(/C=C/c2ccccc2)nn1Cc1ccc(Cl)cc1Cl | -1 | -4 | / | 11 | / | 1.0 | 11 | / | / | /
The results go on:
SMILES | ALR inh | Beta cell apopt | FGF22 binding | T cruzi inh | AF4-AF9 inh | RanGTP-Impb inh | Calb FLC | Ecoli rRNA inh | Ecoli rRNA inh OD600 | Ecoli rRNA inh RFP
Cc1cc(NC(=O)c2c(Br)cnn2C)no1 | / | / | i | -1 | -0.2 | -1.4 | 2 | 12 | 13 | 3.2
COc1cccc(C(O)c2nc3ccccc3n2C(C)C)c1 (stereo not drawn) | 1 | 3 | / | 1 | / | 4.9 | -8 | / | / | /
Nc1nc(SCC(=O)Nc2ccc(Cl)cc2)[nH]c(=O)c1-c1ccccc1 | 12 | -2 | i | -10 | -2.5 | -2.5 | 3 | -3 | 5 | -1.3
CCOCCCNC(=O)c1ccc2c(c1)OCO2 | 1 | -2 | / | -6 | / | 2.5 | -1 | / | / | /
O=S(=O)(NCCc1csc(-c2ccccc2)n1)c1ccc2c(c1)OCCO2 | -3 | -3 | / | 33 | / | 2.3 | 6 | / | / | /
O=C(NNC1=Nc2ccccc2SC1)c1ccc(F)cc1 | -9 | / | i | -5 | 1.8 | 10.0 | 2 | -3 | -10 | -1.5
CC1(C)C2([N+](=O)[O-])CN3CC1([N+](=O)[O-])CN(C2)C3C(O)C(O)C(O)CO (stereo not drawn) | / | 3 | i | 4 | -12 | 5.5 | 9 | 7 | 6 | -1.6
CCOC(=O)c1c(CN2CCOCC2)n(-c2ccccc2)c2ccc(O)cc12 | -85 | 10 | / | -4 | / | -2.9 | 15 | / | / | /
CC(OC(=O)c1cc2sccc2n1C)C(=O)NCC1CCCO1 (stereo not drawn) | -1 | 1 | i | 14 | -33 | -3.6 | 1 | 8 | -1 | 2.3
O=C(CSc1nnc(-c2ccccc2)o1)Oc1ccc(Br)cc1 | -4 | -3 | i | -1 | -45 | 3.7 | -3 | 8 | 10 | 1.4
CCCNC(=O)c1ccc2c(=O)n(Cc3ccco3)c(=S)[nH]c2c1 | 8 | -3 | i | -6 | 0.3 | -1.5 | 30 | -2 | 6 | 0.8
CCOc1ccc(-c2noc(CCCC(N)=O)n2)cc1OC | 0 | -6 | i | -14 | -13 | -2.6 | -3 | -5 | 4 | -3.9
